RN4220 kill: kills Staphylococcus aureus RN4220 | S. aureus RN4220 growth, OD600, 16 h | inhibition, % (test concentration not listed) | actives 0.33% (n = 330,000);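 active = z-score of -3 or lower and OD600 up to 0.18 on both plates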;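 note: plate controls were untreated cells for no effect and reference antibiotic for full effect; stock transfer was 100 nL into about 80 µL; one replicate is shown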
Sa ugtP lethal: compounds lethal to S. aureus RN4220 ugtP deletion mutant; OD600 growth, 16 h; some inactives read as strong as hits; actives 0.54% (n = 330,000); growth inhibition, % (concentration not given with the values); AID 1259309;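 active = z-score under -3 and OD600 up to 0.15 on both plates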;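 note: plate controls were untreated wells for no effect and antibiotic for full effect; wells of about 80 µL received 100 nL stock; the first replicate is given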
* = called active by the depositor. This is a subset. The share of hits here may be higher or lower than overall.

SMILES	RN4220 kill	Sa ugtP lethal
O=c1c2ccccc2nc(-c2ccco2)n1N=Cc1ccccc1O	-2.1	-5
CON=C(Cn1ncc(N2CCCC2)c(Br)c1=O)c1ccc(Cl)cc1	2.0	-3
Cc1ccc(S(=O)(=O)N=C(c2ccc(Cl)cc2)N2CCOCC2)cc1	2.7	-8
O=C(NN=Cc1cn(-c2ccccc2)nc1-c1ccccc1)c1ccc2c(c1)OCO2	4.0	-12
Cc1ccc(C=c2sc3nc(-c4ccccc4Br)nn3c2=O)o1	-0.2	-4
CCCOc1ccc(C=NO)cc1	6.5	6
O=C(NN=Cc1cc([N+](=O)[O-])ccc1Cl)c1ccc2nc[nH]c2c1	-1.3	1
CC(=NNC(=O)Cc1cccc2ccccc12)c1cccs1	0.2	-5
COc1ccc(C(C)=Nn2cnnc2)cc1	0.0	4
O=C(NN=Cc1c[nH]c2ccc(Br)cc12)c1ccn(Cc2ccc(Cl)cc2Cl)n1	-11	-29
COc1cccc(C=Nn2c(-c3cccs3)n[nH]c2=S)c1	8.4	-18
COc1ccccc1-c1cc(C(=O)NN=C/C=C/c2ccccc2[N+](=O)[O-])c2ccccc2n1	-4.7	-4
CC(=NNC(=O)c1ccc(C)s1)c1cccc(NC(=O)COc2ccc(Cl)cc2Cl)c1	-3.5	-19
FC(F)Oc1ccc(C=Nc2c(-c3ccc(OC(F)F)cc3)nc3n2CCS3)cc1	-4.1	-4
Cc1nn(C)cc1C=NNC(=O)c1sc2ccccc2c1Cl	12	-4
CC(CCc1ccc2c(c1)OCO2)=NN=C(N)SC1CC(=O)N(c2ccccc2F)C1=O (stereo unspecified)	6.5	-2
O=C(NN=Cc1ccc(Cl)cc1Cl)c1sccc1-n1cccc1	-3.9	-1
CCOC(=O)C1=C(O)/C(=C\c2ccc(CNC(=O)C(=O)Nc3ccc(C)c(C)c3)o2)N=C1C	-3.5	-9
O=C(NN=C1CCc2ccccc21)c1ccccc1O	27	5
Cc1ccc(NN=Cc2c(O)cc(C)oc2=O)cc1	2.7	1
O=[N+]([O-])c1ccccc1/C=C/C=Nn1c(-c2ccc(Cl)cc2)n[nH]c1=S	5.1	2
ON=C1CCc2nonc2C1=NO	-5.5	2
COc1cc(C(=O)ON=C2CCCc3c2ccc(OC)c3[N+](=O)[O-])cc(OC)c1OC	2.8	7
CCc1ccc(C=NNC(=O)c2cc(-c3ccccc3OC)nc3ccccc23)s1	-4.5	-13
Cc1ccc(-n2[nH]c(C)c(C=C3C=Nc4ccccc43)c2=O)cc1C	0.8	-15

(list continues)
SMILES	RN4220 kill	Sa ugtP lethal
C(=Nn1c2ccccc2c2ccccc21)c1ccco1	-12	77
CC(/C=C/c1ccco1)=NNC(=O)Cc1cccs1	0.0	2
Cc1nn(-c2ccccc2)c(C)c1C=NNC(=O)c1cc(C23CC4CC(CC(C4)C2)C3)[nH]n1	-7.4	-16
CC1(C)N=C(C=NO)C=[N+]1[O-]	3.8	-8
CC(C)c1ccc(S(=O)(=O)N=C2C=C(Sc3ncn[nH]3)C(=O)c3ccccc32)cc1	17	-5
CC(CCc1oc2ccccc2c1-c1ccc(C)o1)=NO	-1.3	12
COc1ccc(C2CC(c3ccccc3)=NN2c2ccc(C=NNC(=O)c3ccncc3)cc2)cc1 (stereo unspecified)	-18	-15
COc1ccc(C2CC2C(=NOC(=O)c2cccs2)c2ccccc2)cc1 (stereo unspecified)	2.6	4
Cn1ncc(C#N)c1N=CN(Cc1ccccc1)Cc1ccccc1	101*	100*
COc1cc(C=NNC(=O)c2ccc3c(c2)OCCO3)cc(Br)c1O	1.7	5
Cc1ccc(C(=O)ON=C(c2nonc2N)N(C)C)cc1	-1.7	4
Cc1nnc(SCC(=O)NN=Cc2cn(-c3ccccc3)nc2-c2ccccc2)n1-c1ccccc1	-3.9	-22
Clc1ccc(Cn2cc(C=Nn3cnnc3)c3ccccc32)cc1	-1.9	8
COc1ccccc1-c1nnc(NC(=O)c2ccc(S(=O)(=O)N(C)Cc3ccccc3)cc2)o1	110*	99*
COc1ccccc1CON=Cc1cccn1-c1nccc(N(C)C)c1C#N	1.9	8
COC(=O)C1=C(N)n2c(sc(=Cc3cccnc3)c2=O)=C(C(=O)OC)C1c1cccnc1 (stereo unspecified)	0.0	3
Cc1snc(S(=O)(=O)C(C#N)=NNc2ccccc2)c1C#N	12	4
COc1ccc(CNC(=O)CC(C)=NNC(=O)C(c2ccccc2)c2ccccc2)cc1	-0.2	15
COc1ccc(C=NNS(=O)(=O)c2ccc(C)cc2)cc1COc1ccccc1[N+](=O)[O-]	13	-1
Cn1cc(C(=O)NN=C/C(Br)=C\c2ccccc2)ccc1=O	-9.2	-3
Cc1ccc(-c2nn(-c3ccccc3)cc2C=NNC(=O)c2ccc(Br)o2)cc1	-12	-14
N#CC(=C(O)CN1C(=O)c2ccccc2C1=O)c1nc2ccccc2[nH]1	2.8	-4
CC(=NNC(=O)C1CC1c1ccccc1)c1ccc(C)s1 (stereo unspecified)	-2.6	-2
Cc1nn(-c2ccccc2)c(C)c1C=Nn1c(-c2ccc(C(C)(C)C)cc2)n[nH]c1=S	4.7	-11
CC(C=Cc1cccs1)=CC(=O)O	1.9	2

Further compounds follow:
SMILES	RN4220 kill	Sa ugtP lethal
CC(=NNC(=O)CC1N=C(Cc2ccccc2)NNC1=O)c1ccc(C)cc1 (stereo unspecified)	3.3	12
Nc1nonc1C(=O)NN=Cc1ccc(-c2cccc([N+](=O)[O-])c2)o1	-0.1	2
COc1ccc(Oc2ccccc2C=NO)cc1	2.5	29
O=S(=O)(c1cnccc1N1CCN(N=Cc2ccc(Br)cc2)CC1)N1CCCCC1	2.1	7
Cc1nn(-c2ccccc2)c(C)c1C=NN1CCN(c2ccc(Cl)cc2)CC1	-1.7	-2
CCOC(=O)C1=C(N)n2c(sc(=Cc3cccs3)c2=O)=C(C(=O)OCC)C1c1cccs1 (stereo unspecified)	-4.2	0
Cc1cccn2c(C=NOCc3cccc(F)c3)c(-c3ccc(Cl)cc3)nc12	-6.6	-8
O=c1c(=Cc2ccco2)sc2n1CN(c1cccc(Br)c1)CN=2	0.2	0
CC(=NNC(=O)c1c(Cl)c(C)nn1C)c1ccc(NC(=O)COc2ccc(Cl)cc2C)cc1	22	-13
COc1ccc2c(c1[N+](=O)[O-])CCCC2=NOC(=O)c1ccccc1SC	3.0	-1
COc1c(Br)cc2c(C)c(C(=O)N3CCOCC3)oc2c1Br	12	-6
COc1ccc(C=NNc2ccc([N+](=O)[O-])cc2)cc1Cn1cc([N+](=O)[O-])cn1	-4.5	-9
COc1ccc(C=Nn2c(=O)[nH]c3c([nH]c4ccc(Br)cc43)c2=O)cc1CN1CCOCC1	3.8	5
COc1ccc(C=Nn2c(SC)nnc(C(C)(C)C)c2=O)cc1OC	-0.4	10
O=C(NCCCNC1CCCCC1)c1ccc(C=NO)nc1	-7.3	8
Cn1c(NN=Cc2cccc(O)c2)cc(=O)n(C)c1=O	5.8	4
CON=CCc1oc(=O)c(NC(=O)c2ccccc2)cc1C(=O)OC	-5.4	9
CN=c1scc(C)n1N=Cc1ccc2c(c1)OCO2	1.4	8
O=C(CN(c1ccc(Cl)c(C(F)(F)F)c1)S(=O)(=O)c1ccccc1)NN=Cc1cccc2c1OCCO2	-7.4	12
COc1cc(C=Nn2cnnc2)ccc1OCCOc1ccccc1	-0.6	6
O=C(CN1CCCc2ccccc21)NN=Cc1ccccc1O	9.7	-3
COc1ccc2c(c1[N+](=O)[O-])CCCC2=NOC(=O)c1cccc2ccccc12	-0.1	-6
C=CCn1c(CNc2ccccc2)nnc1SCC(=O)NN=Cc1ccccc1O	1.5	-5
Cc1ccccc1-c1nc2ccccc2c(=O)n1N=Cc1ccccc1[N+](=O)[O-]	-8.8	-12
CN=c1scc(C)n1N=Cc1ccc(O)cc1	2.3	-1

Given with two lines to a compound: entries from further up
Every second line gives: RN4220 kill	Sa ugtP lethal
Cc1nn(-c2ccccc2)c(C)c1C=NN1CCN(c2ccc(Cl)cc2)CC1
→ -1.7	-2
CCOC(=O)C1=C(N)n2c(sc(=Cc3cccs3)c2=O)=C(C(=O)OCC)C1c1cccs1 (stereo unspecified)
→ -4.2	0
Cc1cccn2c(C=NOCc3cccc(F)c3)c(-c3ccc(Cl)cc3)nc12
→ -6.6	-8
O=c1c(=Cc2ccco2)sc2n1CN(c1cccc(Br)c1)CN=2
→ 0.2	0
CC(=NNC(=O)c1c(Cl)c(C)nn1C)c1ccc(NC(=O)COc2ccc(Cl)cc2C)cc1
→ 22	-13
COc1ccc2c(c1[N+](=O)[O-])CCCC2=NOC(=O)c1ccccc1SC
→ 3.0	-1
COc1c(Br)cc2c(C)c(C(=O)N3CCOCC3)oc2c1Br
→ 12	-6
COc1ccc(C=NNc2ccc([N+](=O)[O-])cc2)cc1Cn1cc([N+](=O)[O-])cn1
→ -4.5	-9
COc1ccc(C=Nn2c(=O)[nH]c3c([nH]c4ccc(Br)cc43)c2=O)cc1CN1CCOCC1
→ 3.8	5
COc1ccc(C=Nn2c(SC)nnc(C(C)(C)C)c2=O)cc1OC
→ -0.4	10
O=C(NCCCNC1CCCCC1)c1ccc(C=NO)nc1
→ -7.3	8
Cn1c(NN=Cc2cccc(O)c2)cc(=O)n(C)c1=O
→ 5.8	4
CON=CCc1oc(=O)c(NC(=O)c2ccccc2)cc1C(=O)OC
→ -5.4	9
CN=c1scc(C)n1N=Cc1ccc2c(c1)OCO2
→ 1.4	8
O=C(CN(c1ccc(Cl)c(C(F)(F)F)c1)S(=O)(=O)c1ccccc1)NN=Cc1cccc2c1OCCO2
→ -7.4	12
COc1cc(C=Nn2cnnc2)ccc1OCCOc1ccccc1
→ -0.6	6
O=C(CN1CCCc2ccccc21)NN=Cc1ccccc1O
→ 9.7	-3
COc1ccc2c(c1[N+](=O)[O-])CCCC2=NOC(=O)c1cccc2ccccc12
→ -0.1	-6
C=CCn1c(CNc2ccccc2)nnc1SCC(=O)NN=Cc1ccccc1O
→ 1.5	-5
Cc1ccccc1-c1nc2ccccc2c(=O)n1N=Cc1ccccc1[N+](=O)[O-]
→ -8.8	-12
CN=c1scc(C)n1N=Cc1ccc(O)cc1
→ 2.3	-1

Further records follow:
SMILES	RN4220 kill	Sa ugtP lethal
CC(=O)O[C@@H]1C=C[C@](C)(O)C[C@@H](C)CC=C[C@H]2[C@H](O)[C@@](C)(O)[C@@H](C)[C@H]3[C@H](Cc4ccccc4)NC(=O)[C@@]312	3.1	-4
S=c1[nH]ncn1N=Cc1cccc(Oc2ccccc2)c1	5.2	9
CC(C)CC(=O)ON=C1C(=O)N(c2ccccc2)c2ccccc21	-0.9	5
COc1ccc(-c2oc(N=CN3CCCC3)c(C#N)c2-c2ccc(OC)cc2)cc1	-3.0	21
CCNc1nc(NC(C)C)nc(Oc2ccc(C=NO)cc2)n1	2.8	5
CCCCCCC(=O)NN=CCc1ccccc1	-1.8	9
CCN1C(=O)OC2(CCCCC2)C1(C)O (stereo unspecified)	-0.1	3
C(=Nc1nccs1)c1cccnc1	2.5	5
CC(C)c1ccc(C(=O)NN=Cc2cccc(Cl)c2Cl)cc1	-7.0	-6
Cc1cc(C=Nn2cnnc2)c(C)n1-c1cccc(Cl)c1	-0.1	-6
COc1cc(OC)cc(C(=O)NN=Cc2ccc(OC)c(COc3ccc4ccccc4c3)c2)c1	-8.5	6
COc1ccc(OCC(=O)NN=C2CCc3ccccc32)cc1	-3.7	10
Nc1nonc1-n1nnc(C(=O)NN=Cc2ccc(O)cc2)c1CN1CCCCCC1	4.0	13
Cc1ccc(C=c2sc3nc(-c4ccco4)nn3c2=O)o1	0.9	-3
C=CCc1c(C)nc(C)nc1NN=Cc1ccc(N(C)C)cc1	0.9	3
CCOc1ccccc1C=NNC(=O)c1ccc(Cn2cc([N+](=O)[O-])cn2)o1	-0.5	3
CCn1ncc(C=NNS(=O)(=O)c2ccc(Cl)cc2)c1C	2.4	3
O=C(COc1ccccc1-c1ccccc1)NN=Cc1cccc2ccccc12	2.6	-4
CC(=NNC(=O)Cc1cccn1C)c1cccc2ccccc12	-1.9	17
CCCn1c(=C(C#N)C#N)sc(=C2C=Cc3ccccc3N2CC)c1=O	-0.2	3
COC(=O)c1scc(C)c1NN=C(C)c1ccc(F)cc1F	3.0	57
Cc1cccc(C(=O)Nc2ccc(C(=O)NN=Cc3ccco3)cc2)c1	1.8	-6
Cc1[nH]c2ccccc2c1C=NNc1nc(Nc2ccc(F)cc2)nc(N2CCOCC2)n1	-4.3	-26
Cc1cc(C)n(N=Cc2cccc(O)c2)c(=O)c1C(N)=O	5.2	-10
COc1cc(C=NNC(=O)C(C)n2nnc3ccccc32)ccc1O (stereo unspecified)	1.3	-3

(cont.)
SMILES	RN4220 kill	Sa ugtP lethal
Br/C(C=NN1CCN(Cc2ccccc2)CC1)=C\c1ccccc1	-0.2	7
Cc1nnc(C)n1N=Cc1cccn1C	4.9	9
Nc1c(S(=O)(=O)c2cccs2)c2nc3ccccc3nc2n1N=Cc1cccc(O)c1	46	25
CCSc1ncc(C=NNc2ccc(Cl)cc2)n1C	-2.4	0
N#CC1=C(N)OC2=C(CN(Cc3ccccc3)CC2=Cc2cccnc2)C1c1cccnc1 (stereo unspecified)	4.5	1
CC(=NOC(=O)Nc1ccc(Cl)cc1)c1ncc(C(F)(F)F)cc1N1CCOCC1	1.4	-2
COC(=O)NN=C(C)/C=C/c1ccccc1	5.2	3
Nc1nonc1-n1nnc(C(=O)NN=Cc2ccccc2O)c1CN1CCCC1	3.0	11
Cc1ccc2nc(C(C#N)=NO)[nH]c2c1	1.0	-5
CC1(N2CCCCC2)CC2(O)C(=NO)CCCC2=[N+]1[O-] (stereo unspecified)	4.7	11
CC(=NNC(=O)c1ccccc1)c1ccc(N2CCOCC2)cc1	1.1	-2

Screens deposited in PubChem by ICCB-Longwood Screening Facility, Harvard Medical School.
